Source: PubChem
PrP UTR inh = suppresses PrP 5' UTR mRNA reporter expression | cell-based PrP 5' UTR mRNA reporter, plate reader | inhibition, % (no concentration beside the values) | 0.35% of 340,000 active;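 active = every replicate at 50% or more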;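 also: 0 = median of the neutral control wells; tested in H4 reporter cells; numbers are from one replicate; inactives centre near -14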
BJeLR lethal = kills HRASV12-expressing BJeLR cells; BJeLR (HRASV12) viability, CellTiter-Glo ATP luminescence, 48 h; reference of the scale not given here; inhibition, % (concentration not given with the values); 0.17% of 300,000 active; AID 1554;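 active = replicate mean above 50%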;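 also: 50 nL library stock added to about 25 µL; numbers are from one replicate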
Autofluor counter = counter-screen for toxin protease inhibitors: compound fluorescence. compound autofluorescence counterscreen, microsphere flow cytometry; active compounds read high. fluorescence intensity (concentration not given with the values). 3.1% of 360,000 active;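 active = at least 3 SD above the mean of all compounds, about 16000 in these data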;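 also: 100 nL of 1 mM stock went into each well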
Numbers without * were called inactive. Only part of the results is shown; the hit share may differ from the screen's.

What do the screens show for `CC1(C)OC2CC(=O)OCC23C1CC(=O)C1(C)C3CCC2(C)C(c3ccoc3)OC(=O)C3OC321` (centres undefined)?
Autofluor counter: 4846

How did COc1ccccc1N1CCN(CCCNc2cc(=O)n(C)c(=O)n2C)CC1 do in these assays?
BJeLR lethal: 3; Autofluor counter: 3558

What do the screens show for `COc1ccc(C(=O)CC(=O)c2ccc(C(C)(C)C)cc2)cc1`?
PrP UTR inh: 57*; Autofluor counter: 5567

Results for CC(=O)c1ccc2c(c1)N(CCCN(C)C)c1ccccc1S2 ?
PrP UTR inh: -6; Autofluor counter: 5882

What do the screens show for `CC(=O)OCC1=C[C@@H]2OC(=O)C3=CO[C@@H](O[C@@H]4O[C@H](CO)[C@@H](O)[C@H](O)[C@H]4O)[C@H]1[C@@H]32`?
PrP UTR inh: 7; Autofluor counter: 3712

Sorted by SMILES length (ascending): some entries from above.
Results for CC(=O)c1ccc2c(c1)N(CCCN(C)C)c1ccccc1S2 ?
PrP UTR inh: -6; Autofluor counter: 5882

What do the screens show for `COc1ccc(C(=O)CC(=O)c2ccc(C(C)(C)C)cc2)cc1`?
PrP UTR inh: 57*; Autofluor counter: 5567

What do the screens show for `CC1(C)OC2CC(=O)OCC23C1CC(=O)C1(C)C3CCC2(C)C(c3ccoc3)OC(=O)C3OC321` (centres undefined)?
Autofluor counter: 4846
